# CapD inh – inhibitors of Bacillus anthracis CapD enzyme; purified CapD enzyme, fluorescence intensity read-out; stronger effect = lower value; some hits fall short of the stated cut; z-score (test concentration not listed); 0.23% of 140,000 active;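 active = z-score under -4 in either of two replicates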;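 note: stock transfer was 100 nL into about 40 µL; score is relative to mean and spread of the plate; one replicate is shown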
# AID504770 – growth inhibitors of E. coli YBA685 in a screen for V. cholerae RctB (chromosome II replication) inhibitors. E. coli YBA685 rctB-dependent plasmid, OD600 growth, 3 h; stronger effect = lower value. z-score (test concentration not listed). 0.27% of 130,000 active;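 active = z-score under -2 on both plates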;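 note: wells of about 30 µL received 100 nL stock; score is relative to mean and SD of the test wells; the first replicate is given; strong numbers were not always called active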
# The depositor's hits bear a star; . = no result given; & = joins results of further samples.
SMILES | CapD inh | AID504770
O=C1/C(=C/c2ccncc2)CCc2ccccc21 | 0.33 | -0.15
CCOC(=O)C1CCCN(CCc2ccccc2)C1 (stereo not given) | 0.075 | -1
CCn1c(SC)nnc1C1CCCN(Cc2ccccc2)C1 (stereo not given) | . | 0.15
COc1ccc(-n2ccc(O)c(Cc3ccc(Cl)cc3)c2=O)cc1 | -0.14 | -0.75
O=C(CNc1ccccc1)N/N=C/c1ccccc1Cl | -0.09 | -0.65
COc1ccc(S(=O)(=O)CCc2nnc(NC(=O)c3ccc(Br)cc3)s2)cc1 | -0.67 | .
Cc1cc(C)c2c(=O)n(CC(=O)NCCCN3CCOCC3)sc2n1 | 1.4 | 0.25
COc1cc2nc[nH]c(=O)c2cc1OC | 0.36 | -0.5&-2.9
O=C(CCC1CCCC1)OCC(=O)c1ccc2c(c1)OCO2 | . | 0.4
CC1(C)Cc2c(c(N3CCOCC3)nc3sc4c(=O)[nH]cnc4c23)CS1 | 22 | -0.8
Nc1cccc(Cl)c1Oc1ccc(S(=O)(=O)Nc2ccc(F)cc2)cc1 | -1.2 | .
COc1ccc(/C=c2\s/c(=C(/C#N)C(=O)Nc3cccc(C(F)(F)F)c3)n(Cc3ccco3)c2=O)c(OC)c1OC | . | 1.7
NC(=O)CCNS(=O)(=O)c1ccccc1 | . | -0.4
O=[N+]([O-])c1cccc(Cl)c1SCc1c(F)cccc1Cl | -0.14 | .
O=C(CCNc1ccccc1)n1c(=O)oc2ccccc21 | -0.14 | -0.95
Cc1nn2c(=O)cc(COC(=O)C(Cc3ccccc3)NC(=O)c3ccccc3)nc2s1 (stereo not given) | . | -0.6
CSc1c(C#N)c(-c2cc(C(C)(C)C)oc2C)nn1C | -0.34 | 0.05
CSC1=NC=C(C#N)C2=NC(C)(c3ccc(Br)cc3)NN12 (stereo not given) | 0.19 | .
Cc1ccccc1NCC1SC(=S)NC1=O (stereo not given) | . | -0.6
CC(=O)N(CC(C)C)c1nnc(-c2cccnc2)s1 | . | -0.7
CC1(C)Cc2c(c(-c3ccccc3)nc3oc(C(=O)c4ccc(Br)cc4)c(N)c23)CO1 | 0.4 | .
N#CC1(C#N)[C@H](c2ccccc2)[C@@H](C(=O)c2ccc(F)cc2)N2c3ccc(Cl)cc3C=C[C@@H]21 | -0.24 | .
Cc1ccc2c(c1)C1CC(C)(O2)N(Cc2ccccc2)C(=O)N1 (stereo not given) | . | -0.2
CCc1cccc2c(/C=C3/C(=O)N(C)c4ccccc43)c[nH]c12 | -2.3 | 2.8
CCN(CC)CC(O)Cn1c2ccccc2c2ccccc21 (stereo not given) | 7.7 | .

SMILES | CapD inh | AID504770
CCSc1nnc(C2CCCN(Cc3cccnc3)C2)n1C(C)C (stereo not given) | . | -0.5
COCc1cc(C)nc2sc3c(=O)n(Cc4ccco4)nnc3c12 | -0.77 | 0.45
O=C1NC(c2cc3c(cc2Br)OCO3)Oc2ccccc21 (stereo not given) | 0.08 | -1.1
COc1ccccc1N1CCN(c2nc(CC(=O)O)nc3sc4c(c23)CCCC4)CC1 | -0.84 | .
CCOc1ccc2nc(SCc3c(F)c(F)c(F)c(F)c3F)[nH]c2c1 | -0.11 | -0.75
CCS(=O)(=O)c1ccc(-c2cccc(NC(=O)C3CC3)c2)nn1 | . | -0.25
CCOC(=O)N1CCC(NC(=O)c2cc3cc4ccc(C)cc4nc3o2)CC1 | 27 | -0.7
N#Cc1c(C2CCCCC2)[nH]c(=S)[nH]c1=O | -1.4 | .
CC1CN(c2cc(=O)n(Cc3ccc(F)cc3)c(=O)[nH]2)CC(C)O1 (stereo not given) | . | -0.1
O=C(CCN1CCc2ccccc21)NCc1cccc(C(F)(F)F)c1 | 0.36 | .
CCn1cc(C(=O)NC2CCCCC2)c(=O)c2ccc(C)nc21 | . | 1.2
O=C1CN(Cc2nc3scc(-c4cccs4)c3c(=O)[nH]2)CCN1 | . | -0.2
CSc1nc2ccccc2cc1/C=C(\C#N)c1cccc(C(F)(F)F)c1 | -0.14 | .
C=CCNc1nc(C(=O)OCC(=O)N2CC(C)OC(C)C2)cs1 (stereo not given) | . | 0
N#CCCS(=O)(=O)c1ccccc1 | -0.6 | 2.6
CCOC(=O)c1c(-c2ccccc2)n(Cc2ccccc2)c2ccc(OC(C)=O)cc12 | -0.055 | .
COc1ccc(COc2ncnc3ccccc23)cc1F | . | -0.2
O=C(CC(c1ccccc1)c1cc(Br)ccc1O)NCCN1CCOCC1 (stereo not given) | . | 1.8
N#Cc1cc2c(nc1SCC(=O)N1CCCCC1)CCCC2 | -0.79 | -0.05
NCC(CC(=O)O)C1CCCCC1 (stereo not given) | -0.42 | 0
COc1ccccc1N1CCN(C(=O)CCC(=O)O)CC1 | 0.16 | .
CC1=NN(C(=O)c2ccccc2Cl)C(O)(C2CCCCC2)C1 (stereo not given) | . | -0.35
Cc1ccc(Oc2nc3cc(Cl)c(Cl)cc3nc2C(F)(F)F)c(C)c1 | -0.1 | .
CCc1ccc(NC(=O)Cn2c(C(=O)OC)cc3oc4ccccc4c32)cc1 | 0.24 | 0.4
COC(=O)c1c(COC(=O)c2cc(S(=O)(=O)N(C)C)ccc2N2CCOCC2)nc2ccccc2c1C | . | -2.1

SMILES | CapD inh | AID504770
CN(C(=O)c1cccc(S(=O)(=O)N2CCCC2)c1)C1CCCCC1 | 0.09 | -1.4
COCC(=O)N1CCN(c2cccc(Cl)c2)CC1 | 0.21 | -0.25
CCn1c(O)c(/C=C2\C=Nc3ccc(Br)cc32)c(=O)[nH]c1=O | -0.095 | 0
CNc1cc(Nc2cccc(C)c2)c2c3c(onc13)-c1ccccc1C2=O | -0.39 | .
Cc1nc(CN2CCN(C(=O)c3ccc(C(C)(C)C)cc3)CC2)cs1 | 0.25 | -1.1
CC(C)(C)c1ccc(-c2nnc(-c3ccccc3[N+](=O)[O-])o2)cc1 | 0.14 | .
Cc1nc2nc[nH]n2c(=O)c1NC(=O)CC12CC3CC(CC(C3)C1)C2 | . | 0.45
CCn1c(=N)n(CC(=O)c2ccc(C)cc2)c2ccccc21 | . | 0
CCCOc1ccc(C2Oc3ccc(Br)cc3C3CC(c4ccccc4)=NN32)cc1 (stereo not given) | -0.08 | .
O=CN1CCCNCC1 | . | -0.3
COc1ccccc1CNC(=O)CC(C)(C)n1cccc1 | -0.36 | .
CN(C)c1cc[n+](Cc2ccccc2)cc1 | . | 1.1
Cc1ccc(Nc2nnc(-c3ccccc3N)o2)cc1C | 36 | 1.4
c1ccc(C2(c3ccccc3)OC(CN3CCCCC3)=Nc3ccccc32)cc1 | 6 | .
COCCCNc1nc(CC(C)C)nc2c1nnn2Cc1ccccc1 | . | 0.3
COc1ccc(C)cc1S(=O)(=O)N(C)CC(=O)N1CCN(c2cccc(Cl)c2)CC1 | 0.22 | 0.55
CCN(CC)C(=O)COc1ccc(/C(C)=N/NC(=O)c2ccccc2O)cc1 | . | -0.05
Cc1cc(C)cc(N2CC(C)(C)C2=O)c1 | -0.26 | -1.2
CSc1sc(C(=O)NN)c2c1C1(CCC2)SCCS1 | -0.31 | 0.1
O=C1NC(=O)C(Nc2ccccc2C(=O)O)S1 (stereo not given) | 18 | -0.55
Cc1sc(-c2ccccn2)nc1OC(=O)c1ccc(Cl)cc1Cl | -0.61 | .
O=C(CCC(=O)N1CCN(S(=O)(=O)c2ccccc2)CC1)c1cccs1 | . | 0.3
Cc1ccc(CNC(=O)C2CCC(=O)N2C2CCCC2)cc1 (stereo not given) | -0.055 | 0.4
CC(C)CC[n+]1[nH]ccc1N | . | -0.15
Cc1ccccc1C1NC(=O)Cc2ccccc21 (stereo not given) | -0.075 | -1.1

# Seven entries out of the list, sorted by molecular weight, smallest number first:
SMILES | CapD inh | AID504770
CC(C)CC[n+]1[nH]ccc1N | . | -0.15
COCC(=O)N1CCN(c2cccc(Cl)c2)CC1 | 0.21 | -0.25
COc1ccccc1CNC(=O)CC(C)(C)n1cccc1 | -0.36 | .
CC(C)(C)c1ccc(-c2nnc(-c3ccccc3[N+](=O)[O-])o2)cc1 | 0.14 | .
CSc1sc(C(=O)NN)c2c1C1(CCC2)SCCS1 | -0.31 | 0.1
Cc1nc2nc[nH]n2c(=O)c1NC(=O)CC12CC3CC(CC(C3)C1)C2 | . | 0.45
CCN(CC)C(=O)COc1ccc(/C(C)=N/NC(=O)c2ccccc2O)cc1 | . | -0.05

# Quoted from the listing:
# CN(C)c1cc[n+](Cc2ccccc2)cc1 in AID504770: 1.1
# O=C1NC(=O)C(Nc2ccccc2C(=O)O)S1 (stereo not given) in AID504770: -0.55
# Cc1sc(-c2ccccn2)nc1OC(=O)c1ccc(Cl)cc1Cl in CapD inh: -0.61
# CCOC(=O)N1CCC(NC(=O)c2cc3cc4ccc(C)cc4nc3o2)CC1 in AID504770: -0.7

# Following part:
SMILES | CapD inh | AID504770
CC(C)NC(=O)Cn1cc(C(=O)C(C)(C)C)c2ccccc21 | -0.22 | -0.15
Cc1ccc(C(=O)CSC#N)cc1 | 0.02 | .
Cc1c(C(C)(C)C)sc(=N)n1C | . | 0.4
CCOC(CCn1c(SCC(=O)NC2CCCCC2)nc2ccccc2c1=O)OCC | 0.22 | 0.05
CC1=C(C(=O)N2CCOCC2)C(c2ccc3c(c2)OCO3)C2=C(CC(C)(C)CC2=O)N1 (stereo not given) | 19 | .
CC1(C)C(=O)C2(C(=O)Nc3cccc(C(F)(F)F)c3)CCC1C2 (stereo not given) | 0.55 | 0.55
CON(C)c1nc(Cl)nc(N(C)C)n1 | . | 1.3
O=C1c2cccnc2C(=O)N1Cc1ccc(S(=O)(=O)N2CCCN(Cc3ccc(F)cc3)C2)cc1 | 0.7 | 0.4
O=C1CS/C(=N\N=C\c2ccccc2Cl)N1CC1CC1 | -0.28 | -0.5
Cn1c(=O)oc2cc(Cl)c(C(=O)c3cc4c(cc3Cl)oc(=O)n4C)cc21 | -0.25 | 0.7
Nc1nc(-c2ccc3c(c2)CCCC3)cs1 | -0.41 | -0.9
COC(=O)[C@H](CC(N)=O)NC(C)=O | 1.3 | 0.7
CCN1CC=C2C(C#N)=C(N)C(C#N)(C#N)C(c3ccc(OC)c4ccccc34)C2C1 (stereo not given) | . | 1.8
O=C(NC1CCCCC1)c1cccnc1C(=O)O | -0.035 | 0.2
COc1ccc(C(=O)N/N=C/c2ccc(C(F)(F)F)cc2F)cc1 | -1.1 | .
COc1cc(C2c3c(oc4ccccc4c3=O)C(=O)N2Cc2ccccc2)ccc1O (stereo not given) | -0.06 | 0.75
Cc1ccc(NC(=O)CCS(=O)(=O)Cc2ccccc2)c(Br)c1 | 1.1 | -0.1
COCCN(C(=O)CCC(=O)NCCc1ccccc1)C1CCN(C)CC1 | -0.5 | .
O=C(O)c1cccn2nnnc12 | . | 2.8
COc1cccc(-n2cnc3scc(-c4cccs4)c3c2=O)c1 | . | 1
O=C(CN1C(=O)c2ccccc2C1=O)c1ccc(Cl)cc1 | . | 0.35
O=C(CN1C2=NCCCN2c2ccccc21)c1cccc([N+](=O)[O-])c1 | -0.045 | .
CNC(=S)N1CCc2c([nH]c3ccccc23)C1C(F)(F)F (stereo not given) | -0.47 | 2.5
O=C(CCc1nc2cccnc2n1-c1ccccc1)Nc1cccc(-c2ccno2)c1 | 0.22 | -0.75
CCN(CC)c1cc(C)c2cc(NC(=O)C3CCCCC3)ccc2n1 | 29 | 1.4

structure | CapD inh | AID504770
CCNc1nc(Oc2c(Cl)cccc2Cl)cc(C(F)(F)F)n1 | 1.2 | .
CCC1=Nc2cc(C(=O)N3CCC(C)CC3)ccc2Sc2ccccc21 | -0.32 | 0.05
CN(C)S(=O)(=O)c1cccc2c1N(C(=O)CCC(=O)NCc1cccc(C(F)(F)F)c1)CC2 | 0.055 | .
CN1CCN(CCC(=O)Nc2cccc(F)c2)CC1 | . | -0.3
CC(=O)Nc1nc(C)cs1 | -0.17 | 2
O=C(CCc1nc(-c2ccccc2F)no1)N1CCN(C2CCCCC2)CC1 | -0.065 | -0.95
CSc1nn(-c2ccccc2)c(NC(=O)COc2cccc3c2OC(C)(C)C3)c1C#N | . | -0.75
COc1ccc(NC(=O)C2CC(=O)N(C)C(=Nc3ccc(Cl)c(C(F)(F)F)c3)S2)cc1 (stereo not given) | -0.61 | .

# Retrieved by compound from the list above (2):
structure | CapD inh | AID504770
CSc1nn(-c2ccccc2)c(NC(=O)COc2cccc3c2OC(C)(C)C3)c1C#N | . | -0.75
CCNc1nc(Oc2c(Cl)cccc2Cl)cc(C(F)(F)F)n1 | 1.2 | .

# Additional results
structure | CapD inh | AID504770
O=C(CNc1ccccc1)N/N=C/c1ccc(N2CCOCC2)cc1 | . | -0.25
Cc1cccc(-c2cc3nc(C)cc(NCCCn4ccnc4)n3n2)c1 | . | -0.75
CCOC(=O)c1cnc(-c2ccccc2)nc1Oc1ccc(OC)cc1 | 0.62 | .
O=C1CC(Cc2ccccc2)N=C(NC(=O)c2ccccc2)N1 (stereo not given) | 0.095 | 1.3
Cc1cc(NC(=O)COCc2cc(-c3ccc(F)cc3)on2)n(-c2ccccc2)n1 | -0.74 | 2.2
O=C(NNc1ncccc1-n1cccc1)c1ccco1 | -0.41 | -0.8
O=C(O)c1cccc(C(=O)O)n1 | -0.52 | 0.7
Cc1c(C(=O)Nc2ccc3c(c2)OCO3)sc2ncnc(N3CCCCC3C)c12 (stereo not given) | -0.86 | .

structure | CapD inh | AID504770
COC(F)(C(=O)NC12CC3CC(CC(C3)C1)C2)C(F)(F)F (stereo not given) | . | 0.5
COc1ccc(N2C(=O)CSC2c2ccc3c(c2)OCO3)cc1 (stereo not given) | 0.51 | -0.2
COc1cccc(C(O)c2nccn2Cc2ccccc2)c1OC (stereo not given) | 0.2 | 0
Cc1cccc(NC(=O)c2sc3nc(C)nc(N4CCN(c5ccccn5)CC4)c3c2C)n1 | -0.43 | .
CC1(C)CSC(=NCCc2ccccc2)N1 | -0.045 | -0.65
Cc1nn(CCC(N)=O)c2nc(-c3cccs3)cc(C(F)(F)F)c12 | 105 | -0.7
FC(F)(F)c1cnc(Sc2nccc(/C=C/c3ccccc3)n2)c(Cl)c1 | 1.5 | .
CS(=O)(=O)N(CC(=O)N1CCCCCC1)c1cc(Cl)cc(Cl)c1 | . | -0.05
CN(C)/C=C1\SCc2ccccc2C1=O | -2.8 | 0.45

# Screening data: PubChem BioAssay, ICCB-Longwood Screening Facility, Harvard Medical School
